# Mtb hypoxia rep = reduces hypoxia-regulated biosensor signal in M. tuberculosis | M. tuberculosis hypoxia-regulated fluorescent reporter, fluorescence | fluorescence inhibition, % (concentration not given with the values) | actives 0.1% (n = 300,000);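 active = 35 to 45% if threefold the growth effect, above 45% if 1.5-fold the growth effect; inactive = the rest, general growth blockers included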;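 note: wells of about 50 µL received 100 nL stock; 0% = vehicle wells and 100% = reference inhibitor wells; whole bacteria with a GFP reporter of the hypoxia response; strong numbers were not always called active; many hits fall short of the cut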
# BJeLR lethal = BJeLR cell viability loss; actives 0.17% (n = 300,000); BJeLR (HRASV12) viability, CellTiter-Glo ATP luminescence, 48 h; reference of the scale not given here; inhibition, % (concentration not given with the values); AID 1554;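 active = replicate mean above 50%; inconclusive = above 50% but judged a plate artefact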;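 note: 50 nL library stock added to about 25 µL; numbers are from one replicate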
# Bead autofluor = counter-screen for toxin protease inhibitors: compound fluorescence | compound autofluorescence counterscreen, microsphere flow cytometry; active compounds read high | fluorescence intensity (no concentration beside the values) | actives 3.1% (n = 360,000) | AID 624483;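 active = at least 3 SD above the mean of all compounds, about 16000 in these data; inconclusive = too few beads counted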;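 note: 100 nL of 1 mM stock went into each well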
# Sa RN4220 lethal = S. aureus RN4220 growth inhibition; AID 1259311; actives 0.33% (n = 330,000); OD600, 16 h; inhibition, % (concentration not given with the values);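 active = z-score of -3 or lower and OD600 up to 0.18 on both plates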;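 note: plate controls were untreated cells for no effect and reference antibiotic for full effect; stock transfer was 100 nL into about 80 µL; one replicate is shown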
# PrP UTR inh = inhibition of PrP 5' UTR reporter expression | cell-based PrP 5' UTR mRNA reporter, plate reader | inhibition, % (test concentration not listed) | actives 0.35% (n = 340,000);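 active = every replicate at 50% or more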;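 note: 0 = median of the neutral control wells; tested in H4 reporter cells; numbers are from one replicate; inactives centre near -14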
# ugtP null kill = growth inhibition of S. aureus ugtP deletion strain; actives 0.54% (n = 330,000); growth inhibition, % (concentration not given with the values); AID 1259309; S. aureus RN4220 ugtP deletion, OD600 growth, 16 h; some inactives read as strong as hits;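 active = z-score under -3 and OD600 up to 0.15 on both plates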;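 note: plate controls were untreated wells for no effect and antibiotic for full effect; wells of about 80 µL received 100 nL stock; the first replicate is given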
# Mtb hypoxia rep growth = also measured in Mtb hypoxia rep; calls as there; growth inhibition, %; measured here: M. tuberculosis growth (absorbance);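 0% = vehicle and 100% = reference antibiotic; read after six days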
# Numbers without * were called inactive; ? = inconclusive; nt = not tested or not shown.
# The line under a structure holds: Mtb hypoxia rep	Mtb hypoxia rep growth	BJeLR lethal	Bead autofluor	Sa RN4220 lethal	PrP UTR inh	ugtP null kill
> COc1cc(OC)cc(C(=O)Nc2cccc3cccnc23)c1
 : 7	13	1	2962	-2.3	-18	3
> Cc1cc2nc(-c3cccc(NC(=O)c4ccc(Br)o4)c3)oc2cc1C
 : 6	0	1	3278	-0.9	-20	23
> COC(=O)c1sc(N2C(=O)c3oc4ccccc4c(=O)c3C2c2cccc(O)c2)nc1C (stereo not drawn)
 : 10	-2	0	3517	1.0	-9	5
> Cc1occc1-c1nnc(SCC(=O)Nc2ccccc2)n1C
 : 4	2	0	4784	2.3	-11	0
> CCCCC/C(=N/O)c1c(C)[nH]c2ccccc12
 : nt	nt	4	4238	nt	-15	nt
> CC(C)CC(=O)c1c[nH]c(C(=O)NCc2ccccc2)c1
 : 9	12	-10	3462	-1.1	-7	3
> C=CCN1C(=O)/C(=C/c2ccc(O)c(OC)c2)S/C1=N/c1nccs1
 : nt	nt	-8	2909	nt	-10	nt
> COc1ccc(CC(=O)N/N=C(/C)CC(=O)N(C)c2ccccc2)cc1
 : nt	nt	-9	3634	nt	-2	nt
> O=C(Cc1c(F)cccc1Cl)N1CCN(S(=O)(=O)c2cccs2)CC1
 : -2	-4	nt	3075	4.0	4	5
> CN(C(=O)COC(=O)c1ccc([N+](=O)[O-])cc1N)c1ccccc1
 : 9	5	-4	4003	1.8	-24	4
> Cc1cc(-n2cc(Br)c(=O)[nH]c2=O)nc(-c2ccccc2)n1
 : 2	5	1	5946	5.9	-33	0
> COc1ccc(CN(C)CC(=O)NC2CCCc3ccccc32)cc1OC (stereo not drawn)
 : 4	14	5	4349	3.3	-9	5
> C/C(CC(=O)Nc1ccccn1)=N\NC(=O)C(=O)Nc1cccc(Cl)c1C
 : nt	nt	-1	3139	nt	-13	nt
> Cn1c(=O)c2cc(S(=O)(=O)NCCC(=O)Nc3ccccc3F)ccc2n(C)c1=O
 : 2	9	-15	11293	3.3	-8	2
> CC(C)CSc1nsc(N)n1
 : 0	5	2	7224	4.0	-34	8
> CC1CCCCN1S(=O)(=O)c1ccc2c(c1)oc(=O)n2CC(=O)O (stereo not drawn)
 : nt	nt	-4	2402	1.5	-6	5
> COc1ccc(C(=S)NC2CCCCC2)cc1
 : nt	nt	-1	2242	8.2	-48	-5
> Cc1ccc(-c2nc(-c3ccccn3)no2)cc1Cl
 : nt	nt	17	4101	nt	72*	nt
> CCn1c(=O)c(C(=O)Nc2nc3ccccc3[nH]2)c(O)c2ccccc21
 : -1	-5	5	2700	100*	-4	100*
> c1cc2nnnn2nc1N1CCCCCC1
 : nt	nt	-4	2374	6.8	-5	7
> O=C(CSC1=NCCS1)NC(NC(=O)CSC1=NCCS1)c1ccccc1
 : 5	5	4	3472	4.3	-18	-1
> COc1ccc(CCNC(=O)CSc2nc3c(c(=O)n(C)c(=O)n3C)n2C(C)C)cc1OC
 : 10	1	-9	8131	0.3	-17	6
> COc1cc(OC)cc(C(=O)NC2CCCCCCC2)c1
 : 14	9	-8	4092	2.4	-10	-1
> O=C(/C=C/c1ccc2c(c1)OCO2)c1ccccn1
 : 1	8	4	nt	5.6	-62	-8
> CCOc1ccc(NC(=S)NNC(=O)c2ccc(Br)cc2)cc1
 : -4	9	-6	3185	3.5	-13	14
> CCOCCCNC(=O)C1CCN(Cc2cccc(OCc3ccccc3)c2)CC1
 : 1	15	0	3788	0.9	-1	9
> CC(Cc1ccco1)NC(=O)c1cccc(S(=O)(=O)N(C)C)c1 (stereo not drawn)
 : 5	-6	1	3856	-3.6	-30	-6
> O=C(c1cccs1)N(Cc1cc2ccccc2[nH]c1=O)c1ccccc1
 : 9	2	2	2487	4.5	-35	11
> Cc1ccc2c(c1)C1C(CO2)C(c2ccccc2)[C@@]2(C)C(=O)NC(C)C(=O)N12 (stereo partly drawn)
 : 18	14	nt	nt	1.7	nt	0
> CCn1cc(C(=O)N[C@@H](CCSC)C(=O)NCCCn2ccnc2)c(=O)c2cc3c(cc21)OCO3
 : 5	11	-10	6025	1.4	-8	0

# Among those listed so far, 7 have an aryl methoxy group:
# The line under a structure holds: Mtb hypoxia rep	Mtb hypoxia rep growth	BJeLR lethal	Bead autofluor	Sa RN4220 lethal	PrP UTR inh	ugtP null kill
> COc1cc(OC)cc(C(=O)Nc2cccc3cccnc23)c1
 : 7	13	1	2962	-2.3	-18	3
> C=CCN1C(=O)/C(=C/c2ccc(O)c(OC)c2)S/C1=N/c1nccs1
 : nt	nt	-8	2909	nt	-10	nt
> COc1ccc(CC(=O)N/N=C(/C)CC(=O)N(C)c2ccccc2)cc1
 : nt	nt	-9	3634	nt	-2	nt
> COc1ccc(CN(C)CC(=O)NC2CCCc3ccccc32)cc1OC (stereo not drawn)
 : 4	14	5	4349	3.3	-9	5
> COc1ccc(C(=S)NC2CCCCC2)cc1
 : nt	nt	-1	2242	8.2	-48	-5
> COc1ccc(CCNC(=O)CSc2nc3c(c(=O)n(C)c(=O)n3C)n2C(C)C)cc1OC
 : 10	1	-9	8131	0.3	-17	6
> COc1cc(OC)cc(C(=O)NC2CCCCCCC2)c1
 : 14	9	-8	4092	2.4	-10	-1

# More records follow:
# The line under a structure holds: Mtb hypoxia rep	Mtb hypoxia rep growth	BJeLR lethal	Bead autofluor	Sa RN4220 lethal	PrP UTR inh	ugtP null kill
> COc1ccc(-n2nc(C(=O)NCC(=O)N3CCN(c4ccccc4F)CC3)c3ccccc3c2=O)cc1OC
 : 9	6	-7	3085	6.7	6	-1
> CS(=O)(=O)Nc1ccc(C2=NN(S(C)(=O)=O)C(c3cccs3)C2)cc1 (stereo not drawn)
 : nt	nt	1	3058	nt	-37	nt
> COc1ccc(N(CC(=O)Nc2c(C)cccc2C)S(=O)(=O)c2ccccc2[N+](=O)[O-])c(OC)c1
 : 5	10	0	3629	10.0	-15	0
> COc1ccc(C2C3C(=O)N(C(C)(C)C)C(=O)C3[C@]3(C)C(=O)N(c4cccc(C)c4)C(=O)N23)cc1 (stereo partly drawn)
 : 14	4	nt	nt	5.3	nt	-2
> O=C(CNC(=O)c1ccc([N+](=O)[O-])cc1)NN=Cc1ccc(OC(=O)c2ccccc2)cc1
 : nt	nt	nt	nt	1.6	nt	-2
> N#Cc1ccc(C(=O)N/N=C/c2cn(CC(=O)O)c3ccccc23)c(F)c1
 : nt	nt	-6	8260	nt	-12	nt
> COc1ccccc1S(=O)Cc1ccc(C(=O)NCc2ccccc2Cl)o1 (stereo not drawn)
 : nt	nt	3	4929	0.0	-39	4
> Cc1n[nH]c(=O)nc1N1CCc2ccccc2C1
 : 15	8	-1	2935	-15	-31	-6
> O=C(Cn1c(=O)oc2ccccc21)Nc1ccc(F)cc1
 : -4	1	-10	3283	2.1	-38	5
> Cc1ccccc1NC(=O)Cc1nc(COC(=O)CC(C)c2ccccc2)cs1 (stereo not drawn)
 : 2	6	nt	5504	3.8	-2	3
> CN(C)CC(=O)c1ccc(-c2ccccc2)cc1
 : 3	8	8	20222*	11	-7	-10
> CCC(=NNC(=O)c1ccc2c(c1)OCO2)c1ccccc1
 : 5	4	nt	nt	2.5	nt	4
> CCC(C(=O)NCc1cccnc1)n1nc(C)n2c(cc3occc32)c1=O (stereo not drawn)
 : -1	6	1	5168	-0.3	-25	6
> O=C(Nc1ccc(Cl)cc1)Nc1cccc2nsnc12
 : 16	10	-3	4133	8.7	-75	2
> Cc1ccccc1SCc1noc(C(=O)NCC2CCCO2)c1C(=O)O (stereo not drawn)
 : 15	11	-8	3960	4.5	-20	4
> CCCCCCCn1ccc(O)c(CC(=O)OC)c1=O
 : -6	-9	-4	3410	-0.4	-11	-3
> COc1ccc(N2CCN(C(CNC(=O)C(=O)NCc3cccs3)c3ccco3)CC2)cc1 (stereo not drawn)
 : 11	8	8	6683	1.4	-2	-4
> COc1ccc(C(CNC(=O)c2ccc(NS(=O)(=O)c3ccc4c(c3)OCCO4)cc2)N(C)C)cc1 (stereo not drawn)
 : -6	6	8	5957	-4.5	-6	8
> CC(C)CNC(=O)c1cc(S(=O)(=O)N2CCOCC2)ccc1N1CCCC1
 : 2	-6	-5	4387	1.5	10	4
> COc1ccc(C2CC(c3ccc(C)cc3)=NN2C(=O)CCC(=O)O)cc1OC (stereo not drawn)
 : nt	nt	4	4110	nt	7	nt
> O=S(=O)(Nc1nc2ccccc2nc1N1CCN(c2ccccc2)CC1)c1ccc(F)cc1
 : 2	7	-3	6377	3.7	-12	-11
> Cc1ccc(/C=N/NC(=O)CSc2nc3ccccc3c(=O)n2-c2ccccc2C)s1
 : nt	nt	-10	7708	nt	-43	nt
> CCc1cccc(C)c1Nc1nc2ccccc2n2cnnc12
 : 18	9	4	3522	4.3	-42	9
> CSC1=C(C#N)C(c2ccc(C)cc2)C2=C(CCCC2=O)N1 (stereo not drawn)
 : nt	nt	5	2613	2.5	-32	7
> Cc1cccc(NC(=O)c2cc(NC(=O)C3CCCCC3C(=O)O)ccc2N2CCCCC2)c1 (stereo not drawn)
 : 6	6	nt	10972	19	-9	-20
> CNC(=O)c1ccsc1NC(=O)c1ccc(Cl)s1
 : 10	8	-5	5728	0.2	-15	4
> CC(C)[C@H](NC(=O)[C@H](Cc1ccccc1)n1c(=O)[nH]c2ccccc2c1=O)C(=O)N[C@@H](Cc1ccccc1)C(=O)O
 : nt	nt	10	5829	0.4	-4	3
> COc1ccc(NC(=O)CSc2nnnn2C)cc1
 : 0	7	8	4279	5.3	-14	0
> Cc1cc(O)c(/C=N/Nc2ccc(Cl)cc2)c(=O)o1
 : nt	nt	2	2524	nt	0	nt
> Cc1[nH]c2ccccc2c1C(c1ccccn1)c1c(C)[nH]c2ccccc12
 : nt	nt	7	2202	6.4	-14	-5
> O=C(c1ccc2nccnc2c1)N1CCCC(N2CCN(c3ccc(F)cc3)CC2)C1 (stereo not drawn)
 : 10	5	-3	5587	5.5	1	3
> CCCOC(=O)c1ccc(NC(=O)c2cc(=O)[nH]c3ccccc23)cc1
 : 9	-2	-8	?	2.6	-4	2
> Cc1ccccc1C(=O)NC1CCN(CC(=O)NCc2ccc(F)cc2)CC1
 : 6	7	9	4360	-3.8	-10	-1
> COC(=O)c1ccccc1C(=O)N1CCCC(CCC(=O)NCc2ccc(F)c(F)c2)C1 (stereo not drawn)
 : 10	6	-7	4014	4.5	-25	4
> CC(=O)N1CCc2cc(S(=O)(=O)NCCC(=O)NCCc3ccccc3)ccc21
 : nt	nt	-4	4675	0.5	-19	1
> O=C(Nc1ccc(Cl)c(C(F)(F)F)c1)[C@@H]1CC=C[C@@H]2CCN(Cc3ccccc3)C(=O)[C@@H]21
 : nt	nt	-1	3843	nt	0	nt

# 6 compounds already listed, sorted by formula weight, low to high.
# The line under a structure holds: Mtb hypoxia rep	Mtb hypoxia rep growth	BJeLR lethal	Bead autofluor	Sa RN4220 lethal	PrP UTR inh	ugtP null kill
> Cc1ccc2c(c1)C1C(CO2)C(c2ccccc2)[C@@]2(C)C(=O)NC(C)C(=O)N12 (stereo partly drawn)
 : 18	14	nt	nt	1.7	nt	0
> C/C(CC(=O)Nc1ccccn1)=N\NC(=O)C(=O)Nc1cccc(Cl)c1C
 : nt	nt	-1	3139	nt	-13	nt
> CCOCCCNC(=O)C1CCN(Cc2cccc(OCc3ccccc3)c2)CC1
 : 1	15	0	3788	0.9	-1	9
> Cn1c(=O)c2cc(S(=O)(=O)NCCC(=O)Nc3ccccc3F)ccc2n(C)c1=O
 : 2	9	-15	11293	3.3	-8	2
> COC(=O)c1ccccc1C(=O)N1CCCC(CCC(=O)NCc2ccc(F)c(F)c2)C1 (stereo not drawn)
 : 10	6	-7	4014	4.5	-25	4
> COc1ccc(N(CC(=O)Nc2c(C)cccc2C)S(=O)(=O)c2ccccc2[N+](=O)[O-])c(OC)c1
 : 5	10	0	3629	10.0	-15	0

# Screening data: PubChem BioAssay, several laboratories
